Screens deposited in PubChem BioAssay by several laboratories.
eIF4H inh: human eIF4H binding inhibitors, primary screen, translation initiation inhibitor project, biochemical, uHTS, fluorescence polarization; AID 2012, 2009; eIF4H fluorescence polarization binding assay; inhibition, % at 35 µM; Eukaryotic translation initiation factor 4H (Homo sapiens), Q15056; actives 0.94% (n = 290,000);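 active = 50% or more with normal probe brightness, or confirmed in later tests; inconclusive = above 50% with abnormal brightness, or retests that disagree; inactive = below 50% or failed in later tests; about a fifth of its hits are not listed in these tables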;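 also: calls also rest on retests at 20 µM and on dose response follow-up; 0% = protein and probe with vehicle and 100% = probe without protein; strong numbers were not always called active; many hits fall short of the cut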
MT1-MMP act inh: blockers of MT1-MMP proenzyme processing, primary screen, HT1080 RFP-PRO-GFP cells, GFP/RFP fluorescence; Matrix metalloproteinase-14 (Homo sapiens), P50281; GFP/RFP ratio change, % at 20 µM; GFP/RFP ratio fluorescence, overnight; percent of plate control window, DMSO zero; actives 0.061% (n = 360,000); AID 651647, 2012;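 active = GFP/RFP ratio change of at least 30% with cell ATP level not reduced by more than half and red fluorescence within 50% of control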; also: strong numbers were not always called active
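Assay system: RFP-PRO-GFP reporter HT1080 cells; read-out basis: GFP/RFP fluorescence ratio; benchmarks: DMSO wells and RFP-L50D-GFP cells; doses: 20 µM single dose, 1% DMSO; schedule: overnight cell settling, then overnight compound exposure, 37 °C, 5% CO2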
Rce1 inhib: yeast Rce1p protease inhibitors, primary screen, biochemical, fluorescence, cell-free homogeneous; CAAX prenyl protease 2 (Saccharomyces cerevisiae (strain ATCC 204508 / S288c)), Q03530; yeast membranes, quenched prenylated peptide cleavage fluorescence; calls only; actives 0.27% (n = 290,000);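 active = fall in fluorescence gain of 50% or more versus controls, with final raw signal at or below 3038400; inconclusive = same 50% fall but final raw signal above 3038400; inactive = fall in fluorescence gain under 50%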;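 also: plate controls were neutral control wells for no effect and wells lacking membranes for full effect; tested at 10 µM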
Target sequence (Q03530 whole entry, looked up): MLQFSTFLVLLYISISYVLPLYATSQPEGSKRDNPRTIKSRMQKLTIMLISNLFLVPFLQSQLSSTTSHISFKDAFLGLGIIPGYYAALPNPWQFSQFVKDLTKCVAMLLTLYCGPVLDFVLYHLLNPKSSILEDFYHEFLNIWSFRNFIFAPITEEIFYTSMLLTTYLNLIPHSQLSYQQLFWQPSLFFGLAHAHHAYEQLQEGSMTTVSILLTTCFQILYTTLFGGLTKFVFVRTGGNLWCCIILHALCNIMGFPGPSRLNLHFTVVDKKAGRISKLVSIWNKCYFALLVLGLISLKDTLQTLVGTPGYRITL
PABP polyA inh: PABP poly(A) RNA binding inhibitors, primary screen, biochemical, fluorescence polarization, uHTS; Polyadenylate-binding protein 1 (Homo sapiens), P11940; inhibition, % at 35 µM; actives 1% (n = 290,000); AID 2014, 2009;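 active = 50% or more with normal probe brightness, or confirmed in later tests; inconclusive = above 50% with abnormal brightness, or retests that disagree; inactive = below 50% or failed in later tests; about a fifth of its hits are not listed in these tables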;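 also: calls also rest on retests at 20 µM and on dose response follow-up; controls were probe without protein and protein plus probe with vehicle; some compounds called inactive have numbers as strong as hits; many hits fall short of the cut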
CSC inhib: cancer stem cell viability inhibitors, primary screen, luminescence. actives 1.1% (n = 300,000). cancer stem cell-like cells viability. inhibition, % at 7.5 µM. AID 2717, 2010;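 active = mean at 75% or more and at least half the replicates too; inconclusive = mean and replicates disagree; tested in HMLE shEcad cells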;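 also: 0% = median of negative and 100% = median of positive control wells; the first replicate is given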
Yeast UUG start: modulators of yeast start codon fidelity, primary screen, whole organism, S. cerevisiae, single point, plate reader. S. cerevisiae UUG-firefly luciferase reporter, luminescence/redox ratio. activity score, % at 18.7 µM. actives 0.13% (n = 350,000). AID 602363, 2012;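 active = replicate mean at a twofold rise or more, about +100% in these data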;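 also: firefly luciferase made from a UUG start codon reports start codon fidelity; reporter light over untreated wells divided by growth signal over untreated wells; some hits fall short of that in this replicate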
Env fusion inh: inhibitors of HIV-1 Env-driven cell-cell fusion, primary screen, HeLa-JRFL effector, CEM21 target cells, luciferase; inhibition, % at 12.3 µM; actives 1.1% (n = 360,000); AID 651610, 2012;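 active = mean replicate inhibition score of at least 50 and every replicate individually at or above 50; inconclusive = only one of the two criteria met; inactive = mean below 50 and not all replicates reaching 50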;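 also: 0% = plate neutral controls and 100% = maraviroc near 300 nM; one replicate is shown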
eIF4H inh retest: second read-out of eIF4H inh, no call of its own (marks repeat the call); inhibition, %; compound at 20 µM; confirmation average;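 mean of two retest wells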
PABP polyA inh retest: recorded beside PABP polyA inh, whose call it bears; inhibition, %; compound at 20 µM; confirmation repeats;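 mean of two retest wells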
MT1-MMP act inh RFP: also measured in MT1-MMP act inh; calls as there; RFP signal change, %; measured here: RFP expression control read;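 0 = vehicle wells; hits needed this value within 50% of zero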
* marks the source's active call; other numbers are inactive results; i = inactive; ? = inconclusive; / = no result given; & = joins results of further samples. Random draw from the library; 2.9% or so of the library scored in one or more.

SMILES | eIF4H inh | MT1-MMP act inh | MT1-MMP act inh RFP | Rce1 inhib | PABP polyA inh | CSC inhib | Yeast UUG start | Env fusion inh | others
O=C(O)c1ccc(N/N=C/c2ccc(-c3ccc(Br)cc3)o2)cc1 | 55 | -1 | -1 | i | 7 | 8 | -9 | -15 | eIF4H inh retest=30;PABP polyA inh retest=37
Cc1c(C(=O)N2CCCCC2C)sc2ncnc(N3CCc4ccccc4C3)c12 (stereo unspecified) | -11 | 3 | -7 | i | 3 | -8 | / | 9
O=c1cc(-c2cccc(Br)c2)nc(-c2ccccc2F)o1 | 1 | 3 | 3 | i | 2 | -7 | / | 7
CC(=O)c1ccc(OCCCC(=O)Nc2ccc(C)c(S(=O)(=O)N(C)C)c2)cc1 | -14 | -5 | -10 | i | -8 | 3 | 6 | /
CC(C)Cn1c(N)c(C(=O)COC(=O)c2cccnc2Cl)c(=O)n(C)c1=O | -2 | 6 | -5 | i | 0 | -11 | / | -7
C=C(C)Cn1c(=S)[nH]c2ccccc2c1=O | -11 | 12 | 5 | i | 1 | -4 | -14 | -50
O=C(COC(=O)c1cc(=O)[nH]c(=O)[nH]1)Nc1cccc(Cl)c1 | / | -1 | 1 | / | / | 13 | -11 | -12
CSc1cccc(NC(=S)N(CCC(C)C)C(C)c2ccncc2)c1 (stereo unspecified) | 3 | -2 | -1 | i | 2 | 7 | -16 | 9
O=C(CNS(=O)(=O)c1ccccc1)N/N=C/c1ccccc1[N+](=O)[O-] | -6 | -2 | -1 | i | 0 | 3 | / | -1
Cc1occc1C(=O)Nc1cc(C(C)(C)C)on1 | -10 | -3 | -3 | i | -4 | 35 | -7 | /
Cc1cccc2cc(C(c3nnnn3Cc3ccccc3)N3CCCc4ccccc43)c(=O)[nH]c12 (stereo unspecified) | 1 | -12 | -2 | i | 1 | / | -6 | 21
O=C1CN(C(=O)CNC(=O)c2ccc(Cl)cc2Cl)CCN1 | 3 | 1 | 1 | i | 1 | -4 | -16 | -33
O=C(Nc1ncccc1O)c1ccc(OCC2CCCO2)cc1 (stereo unspecified) | 2 | -9 | 1 | i | 3 | / | -57 | 14
Cc1ccc(NC(=O)CNC(=O)C23CC4CC(CC(C4)C2)C3)nc1 | / | 1 | 3 | / | / | / | -9 | 19
O=C(CCS(=O)(=O)c1cccc2nsnc12)NC1CCCCC1 | 0 | -1 | 2 | i | 4 | 4 | -20 | 0
Nc1nc2nccc(-c3ccccn3)n2n1 | -7 | 0 | 4 | i | 14 | -3 | / | 3
CCOC(=O)n1c(=O)oc2ccccc21 | 2 | -7 | 1 | i | -2 | 1 | -14 | /
COc1nc(-c2ccccc2)cc(C(F)(F)F)n1 | -6 | 2 | 1 | i | -18 | -22 | -18 | /
CCCOc1ccc(-c2nnn(CC(=O)OCC)n2)cc1 | 12 | 2 | 6 | i | 9 | 3 | 2 | 34
Cc1noc(/C=C/c2cccs2)c1S(=O)(=O)N1CCC(C(=O)NCCCN2CCCC(C)C2)CC1 (stereo unspecified) | -2 | 4 | -1 | i | ? | 0 | / | 13
NS(=O)(=O)c1ccc(CNC(=S)Nc2cc(S(=O)(=O)N3CCOCC3)ccc2Cl)cc1 | / | 1 | -4 | / | / | / | 0 | -3
Cc1c(C(=O)NCCCN2CCOCC2)oc2ccc(S(=O)(=O)N3CCOCC3)cc12 | 9 | -1 | 0 | i | -8 | -14 | / | 9
O=C(Nc1ccc(CN2CCOCC2)cc1)c1ccc(Br)o1 | -4 | / | / | i | -2 | 7 | -17 | -20
O=C(Nc1ccc(S(=O)(=O)N2CCc3ccccc32)cc1)c1ccc2c(c1)OCO2 | 2 | 1 | -17 | i | 8 | 11 | -6 | /
COc1ccc(-n2c(C)cc(C(=O)NC3CCCCC3)c2C)cc1 | -3 | -3 | -3 | i | -6 | 13 | -2 | /
CCCCC(C(=O)NC(C)c1ccccc1)C(=O)NC(C)c1ccccc1 (stereo unspecified) | -10 | 2 | -3 | i | 1 | -5 | -9 | 4
c1ccc2nc(-c3ccc4c(c3)OCO4)ccc2c1 | 49 | 0 | -7 | i | 49 | 1 | -35 | /
CCN(c1ccccc1)S(=O)(=O)c1ccc(OC)c(NC(=O)C2CCC2)c1 | / | 2 | -4 | / | / | 33 | -4 | 6
CCOC(=O)NC(=O)COC(=O)CNC(=O)c1cccc(OC)c1 | -13 | 1 | 1 | i | -6 | -8 | -8 | -35
CCOC(=O)c1[nH]c(C)c(C(=O)NC2CCCC2)c1C | -6 | -1 | -1 | i | 1 | / | -4 | -2
CCCCn1c(N)c(N(CCOC)C(=O)CCCn2c(=O)oc3ccccc32)c(=O)[nH]c1=O | / | 2 | 3 | / | / | / | -9 | 5
CCCC(=O)Nc1ccc(S(=O)(=O)Nc2cc(C)nc(C)n2)cc1 | -4 | 3 | 4 | i | 7 | -9 | -15 | /
Cc1c(Cl)cccc1-n1c(SCC(=O)N2CCC(C(=O)O)CC2)nnc1-c1ccncc1 | -1 | 0 | 2 | i | 12 | -15 | / | 11
Cn1c(-c2ccc3c(c2)OCO3)cnc1NCc1ccc(Cl)cc1 | -9 | 2 | 3 | i | 8 | 13 | -3 | -212
O=C(Cn1cc2c(n1)CCCCC2)Nc1ccc(F)cc1F | 0 | 4 | -1 | / | -2 | / | -6 | -11
Cc1cc(C(=O)CN2C(=O)NC(C)(c3cc(F)ccc3F)C2=O)c(C)n1C1CC1 (stereo unspecified) | / | 4 | 2 | / | / | / | -28 | -6
Cn1nc(C(F)(F)F)c(-c2cccc(C(F)(F)F)c2)c1NC(=O)CSCC(=O)O | -2 | 2 | 0 | i | 9 | -4 | / | -7
CC(=C\c1ccco1)/C=C1/SC(=S)N(CC(=O)O)C1=O | 87* | 5 | 7 | i | 66* | 14 | / | -27
CC(=O)NCCNC(=O)c1ccc(CSc2ccc(Cl)cc2)cc1 | 1 | 2 | -1 | i | 3 | 3 | -2 | -9
CSCCC(=O)N1CCCC(CNC(=O)c2ccccc2Cl)C1 (stereo unspecified) | -10 | -2 | 1 | i | 0 | -6 | / | 2
O=C1c2ccccc2C(=O)N1CCc1csc(-c2ccccc2)n1 | 2 | 0 | 5 | i | 3 | 10 | 1 | -24
Cc1nn(Cc2c(Cl)cccc2Cl)c(C)c1NC(=O)c1cnn2c(C(F)F)cc(-c3ccccc3)nc12 | 4 | 5 | 0 | i | 11 | -5 | -15 | -73
Cc1cc(C)c2c(c1)NC(C(=O)O)C1CC=CC21 (stereo unspecified) | 93* | -8 | 11 | i | 86* | 8 | -18 | 8
Cc1ccc(NC(=O)CS(=O)CC(=O)NC2CCN(Cc3ccccc3)CC2)c(C)c1 (stereo unspecified) | -6 | 6 | -8 | i | -7 | -1 | / | -3
CS(=O)(=O)NC1c2cccc3cccc(c23)C1Sc1nncn1/N=C/c1ccco1 (stereo unspecified) | -7 | -7 | 3 | i | -1 | 5 | -4 | /
Cc1cccc(N2C(S)=C(C#N)C(=O)NC23CCCCC3)c1 | -1 | 2 | 6 | i | -1 | -12 | -12 | 3
COc1ccc(CCNC(=O)C(=O)NCC2OCCN2S(=O)(=O)c2ccc(C)cc2)cc1 (stereo unspecified) | -7 | -3 | -12 | i | 9 | -14 | 1 | /
CC(=O)OC1CC2(C)C(C(C)=O)CCC2C2CCC3=CC(=O)CCC3(C)C12 (stereo unspecified) | / | 0 | 0 | / | / | / | 10 | 19
Cc1cccc(CSc2nnc(-c3cnccn3)n2C)c1 | 7 | 3 | 5 | i | 3 | -12 | 2 | 2
CCOC(=O)c1ccc(NC(=O)c2cccc(S(=O)(=O)N3CCN(C(C)=O)CC3)c2)cc1 | 0 | 4 | -10 | i | 0 | -10 | 8 | 12
CNC(=S)NNC(=O)CCn1nc(C)c(Br)c1C | -6 | 1 | 2 | i | 0 | -8 | -14 | 2
CC(C)(C)c1ccc(/C=N/NC(=O)CN2CCS(=O)(=O)CC2)cc1 | 1 | -4 | 4 | i | -3 | -11 | 2 | 21
Cc1cc(C)cc(NC(=O)CN2CCC(C(=O)c3ccccc3)CC2)c1 | -12 | 3 | 1 | i | 4 | 16 | -8 | 15
Cc1ccsc1/C=N/NC(=O)c1nnn(-c2nonc2N)c1CN(C)c1ccccc1 | -13 | 1 | -3 | i | 0 | 20 | -10 | 5
CSCCC(NS(=O)(=O)c1ccccc1F)C(=O)NCC(C)(C)N1CCOCC1 (stereo unspecified) | / | 6 | 3 | / | / | 0 | -16 | 13
CNC(=O)c1c(NC(=O)CCS(=O)(=O)c2ccccc2)sc(C)c1C | / | 1 | 3 | i | / | -8 | 29 | 2
O=C(NCc1ccco1)c1ccc2c(c1)N(Cc1ccc(Cl)cc1)CCS2 | -2 | -15 | -4 | i | 15 | -1 | -10 | 29
Cc1ccc(S(=O)(=O)N(C)C[C@@H]2OCCCC[C@H](C)Oc3ccc(NC(=O)Nc4ccc(F)cc4)cc3C(=O)N([C@H](C)CO)C[C@H]2C)cc1 | / | 3 | -7 | / | / | / | -13&0 | -3
COc1cc(/C=C2\NC(=S)N(C)C2=O)ccc1O | 23 | -49 | 2 | i | 2 | -9 | / | -4
CCNc1nc(NCC)n2c(SCC(=O)Nc3cc(OC)ccc3OC)nnc2n1 | / | 0 | 2 | i | / | 9 | / | 0

Three structures already listed, ordered by heavy-atom count, rising.
SMILES | eIF4H inh | MT1-MMP act inh | MT1-MMP act inh RFP | Rce1 inhib | PABP polyA inh | CSC inhib | Yeast UUG start | Env fusion inh | others
CNC(=S)NNC(=O)CCn1nc(C)c(Br)c1C | -6 | 1 | 2 | i | 0 | -8 | -14 | 2
Cc1cccc(N2C(S)=C(C#N)C(=O)NC23CCCCC3)c1 | -1 | 2 | 6 | i | -1 | -12 | -12 | 3
O=C(NCc1ccco1)c1ccc2c(c1)N(Cc1ccc(Cl)cc1)CCS2 | -2 | -15 | -4 | i | 15 | -1 | -10 | 29

(more compounds)
SMILES | eIF4H inh | MT1-MMP act inh | MT1-MMP act inh RFP | Rce1 inhib | PABP polyA inh | CSC inhib | Yeast UUG start | Env fusion inh | others
COc1ccc(CCN2C(=O)C(Oc3ccccc3)C2c2ccc3c(c2)OCO3)cc1 (stereo unspecified) | 8 | -1 | -1 | i | 12 | -5 | -27 | 16
Cc1cc(F)ccc1NS(=O)(=O)c1c(C(=O)N2CCOCC2)c(C)n(C)c1C | -11 | -1 | -2 | i | 4 | -3 | 1 | -1
COc1ccccc1N(C)S(=O)(=O)c1ccc(C(=O)Nc2ccncc2)cc1 | / | -4 | -19 | / | / | 4 | -16 | 32
CC1(C)Cc2c(c(-c3ccccc3Cl)[nH]c(=O)c2C#N)CO1 | -2 | 5 | 1 | i | 0 | -8 | -13 | /
N=c1oc2c3c4c(cc2cc1C(=O)Nc1ccccc1)CCCN4CCC3 | ? | -221 | 9 | i | ? | / | -10 | /
COc1ccc2oc(-c3ccccc3)c(C(N)=O)c2c1 | -10 | 2 | -1 | i | -11 | -4 | -13 | -71
CCN1C(=O)/C(=C/C=C2/CCCN2C)OC1=S | ? | -92 | 2 | i | ? | -6 | / | -12
